Ecoli growth – inhibitors of Escherichia coli growth; OD600 absorbance (concentration not given with the values); 0.21% of 330,000 active; OD600, 23 h; stronger effect = lower value; AID 1053175;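 active = OD600 absorbance below the run mean of sample wells minus 3.6 SD, in any replicate, cut at about 0.56 in these data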;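 also: stock transfer was 300 nL into about 60 µL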
LANA-H2A inh – blocks KSHV LANA binding to histone H2A/H2B; 0.6% of 320,000 active; cell-free LANA-H2A/H2B peptide, fluorescence polarization; inhibition, % (no concentration beside the values); in the data active = inhibition mostly above about 10%, no sharp cut-off; inactive = mostly below about 6.7%;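 also: stock transfer was 7.5 nL into about 10 µL; 0% = median of vehicle wells and 100% = median of positive control wells; one replicate is shown; the record names a cut of 25% in any replicate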
Beta2AR agonist – human beta-2 adrenergic receptor agonism by FAP. 0.43% of 340,000 active. Am2.2-beta2AR cells, FAP receptor internalization, flow cytometry; reference of the scale not given here. response, % (test concentration not listed);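 active = response above a set limit, near 3 SD of response in nonfluorescent compounds, cut at about 42% in these data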;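 also: stock transfer was 100 nL into about 11 µL; a reference agonist was the positive control; negative values mostly stem from fluorescent compounds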
UCH37 inh – inhibitors of human deubiquitinating enzyme UCH37. 0.33% of 330,000 active. inhibition, % (no concentration beside the values). purified proteasome/UCH37, Ub-AMC cleavage fluorescence;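 active = mean of two replicates above 20%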;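 also: 0% = compound-free wells with enzyme and 100% = wells lacking proteasome; stock transfer was 100 nL into about 20 µL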
Target sequence (Q9Y5K5 whole entry, looked up): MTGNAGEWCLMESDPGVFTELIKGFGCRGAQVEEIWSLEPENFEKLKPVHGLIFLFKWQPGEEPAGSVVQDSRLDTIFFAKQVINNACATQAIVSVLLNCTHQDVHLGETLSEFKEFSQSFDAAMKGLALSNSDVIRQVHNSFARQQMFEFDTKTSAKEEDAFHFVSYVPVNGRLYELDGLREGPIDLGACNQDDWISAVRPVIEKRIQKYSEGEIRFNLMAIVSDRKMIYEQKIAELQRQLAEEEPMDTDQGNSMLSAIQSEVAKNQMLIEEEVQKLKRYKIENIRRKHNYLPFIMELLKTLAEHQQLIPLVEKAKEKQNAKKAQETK
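Signal – fluorescence, ex 355 nm, em 460 nm · System – Proteasome-bound UCH37 · Input – 0.15 nM proteasome as dispensed · Timing – 30 min preincubation with enzyme, 25 min cleavage at room temperature · Read-out basis – percent inhibition of cleavage signal versus uninhibited and no-proteasome wells · Medium – Tris-HCl pH 7.4 with ATP-MgCl2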
FGF22 binding – FGF22 (human) thermal shift binding | Q9HCT0 | recombinant FGF22 thermal shift, SYPRO orange fluorescence; percent of sucrose octasulfate shift, DMSO zero | calls only at 9.99 µM | 1.5% of 340,000 active | AID 651658;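 active = melting point raised past a set limit in the mean and every replicate; inconclusive = no clear call; three in four hits are not shown here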
Target sequence (Q9HCT0 whole entry, looked up): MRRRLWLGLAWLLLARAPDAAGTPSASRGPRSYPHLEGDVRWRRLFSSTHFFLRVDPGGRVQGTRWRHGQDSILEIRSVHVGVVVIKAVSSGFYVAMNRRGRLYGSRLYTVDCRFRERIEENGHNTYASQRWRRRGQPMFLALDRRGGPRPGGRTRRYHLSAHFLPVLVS
ALR inh – human ALR oxidase inhibition via reduced H2O2 | P55789 | purified ALR, DTT oxidation, H2O2 HRP-luminol luminescence | inhibition, % (concentration not given with the values) | 3.8% of 290,000 active | AID 485317;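 active = mean and each replicate at 75% or more; inconclusive = only one of the two met; inactive = neither met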;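 also: stock transfer was 7.5 nL into about 7.5 µL; 0% = neutral wells and 100% = wells with inactivated enzyme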
HNF4A DNA FP – change in binding of human HNF4 alpha to DNA; 0.3% of 360,000 active; HNF4a-FITC DNA binding, fluorescence polarization, 1 h; activity change, % at 10 µM; in the data active = activity change above about 30%, passing the limit was not always enough;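 also: controls were the assay level and a saturating level of protein; the project sought stronger binding though the title names inhibitors; some compounds called inactive have numbers as strong as hits; positive values seem to mean higher polarization but the record does not say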
Target sequence (P41235 whole entry, looked up): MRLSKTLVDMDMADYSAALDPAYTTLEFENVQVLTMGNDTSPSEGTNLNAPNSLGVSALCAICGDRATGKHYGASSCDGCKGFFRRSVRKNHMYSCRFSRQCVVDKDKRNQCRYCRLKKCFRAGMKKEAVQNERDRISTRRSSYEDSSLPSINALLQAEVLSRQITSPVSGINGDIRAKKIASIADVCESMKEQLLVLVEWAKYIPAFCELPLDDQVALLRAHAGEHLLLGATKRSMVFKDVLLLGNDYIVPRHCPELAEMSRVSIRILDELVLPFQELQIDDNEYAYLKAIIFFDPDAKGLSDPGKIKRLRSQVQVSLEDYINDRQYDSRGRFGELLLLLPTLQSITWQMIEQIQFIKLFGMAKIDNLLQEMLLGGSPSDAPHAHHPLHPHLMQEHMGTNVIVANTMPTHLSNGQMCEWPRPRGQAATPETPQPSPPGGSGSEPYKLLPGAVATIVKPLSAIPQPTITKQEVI
An asterisk follows results filed as active; i = inactive; ? = inconclusive; / = no result given; ! = not confirmed by another sample.

Under each structure – Ecoli growth, LANA-H2A inh, Beta2AR agonist, UCH37 inh, FGF22 binding, ALR inh, HNF4A DNA FP
O=C(COc1ccc(S(=O)(=O)N2CCCC2)cc1Cl)NCc1ccc2c(c1)OCO2
→ 0.75, 1.7, -4, 3.0, /, -5, 0.1
C=CCn1c(C)c(C(C)=O)c(N2CCN(c3ccccc3)CC2)nc1=S
→ /, -3.8, -36, -0.9, /, 25, 37
O=c1c2cc(Br)ccc2nc2n1CCCCC2
→ 0.67, -4.6, -8, 2.6, /, -25, 0.2
Cc1c(C(=O)N2CCN(CC(=O)Nc3ccccc3Cl)CC2)oc2ccc(Br)cc12
→ 0.68, -276, -3, 5.3, i, /, 3.6
CN(Cc1ccccc1)C(=O)c1ccccc1NC(=O)c1ccccc1
→ 0.65, /, 5, 1.3, i, /, 0.1
COc1ccc(/C=N/NC(=O)c2ccncc2)cc1CN1CCN(c2ccc(F)cc2)CC1
→ /, -0.7, 2, /, i, 99*, -0.3
COC(=O)N1CCc2c(sc(NC(=O)C3=COCCO3)c2C#N)C1
→ 0.7, 4.9, -26, 5.6, i, 22, 0.2
CCOC(=O)C(C)(C)Oc1cccc2c1S(=O)(=O)c1ccccc1-2
→ 0.7, 5.9, 2, 4.7, i, 1, -0.2
Cn1c(CN2CCCCC2)nc2cc(NC(=O)c3cccs3)ccc21
→ 0.66, -5.6, -12, 0.7, /, -3, 0.1
C#CCOC(=O)CCCNc1ccc([N+](=O)[O-])cc1[N+](=O)[O-]
→ 0.7, 0.8, 0, 10, /, -2, 3.3
Cc1cccc(-n2c(SCc3ccc([N+](=O)[O-])cc3)nnc2-c2c[nH]c3ccccc23)c1
→ 0.72, 0.1, 2, 2.0, i, 2, 12
C=CCc1ccc(OCCOCCNCCOC)c(OC)c1
→ 0.69, 3.5, 5, -2.1, /, -4, -2.5
CCCCCOc1ccc(CN2CCOCC2)cc1Cl
→ 0.65, 2.1, 0, 2.5, /, -15, 0.4
N/C(=N\OC(=O)c1ccc2c(c1)OCO2)c1cccnc1
→ 0.68, 0.0, 4, -1.5, i, 0, -0.9
CCN(C[C@H]1N[C@@](Cc2ccccc2)(C(=O)OC)[C@H]2C(=O)N(Cc3ccccc3)C(=O)[C@@H]12)C(=O)Nc1ccc(Cl)cc1
→ 0.59, i, 0, 0.8, i, 1, -2.9

Under each structure – Ecoli growth, LANA-H2A inh, Beta2AR agonist, UCH37 inh, FGF22 binding, ALR inh, HNF4A DNA FP
COc1ccc(CCNC(=O)CSc2nc(O)c(CCC(C)C)c(=O)[nH]2)cc1OC
→ 0.66, 0.9, 10, 0.5, /, 71, 1.3
CN1C(=O)CC(N2CCC(c3nc4ccccc4s3)CC2)C1=O (stereo unspecified)
→ 0.73, -2.8, -3, 4.0, /, -8, -0.7
COC(=O)NCC(c1ccc2c(c1)OCO2)N1CCN(c2ccccc2)CC1 (stereo unspecified)
→ 0.69, 2.0, -7, 2.7, i, ?, -0.8
O=[N+]([O-])c1ccc(N2CCN(c3ccc(Cl)nn3)CC2)cc1NC1CC1
→ 0.73, -0.2, -3, 3.2, /, /, 3.5
CC(=O)c1c(Cl)nc2cccc3c2c1-c1ccccc1C3=O
→ /, 0.6, -45, /, i, -12, -16
COc1ccc(C(=O)COC(=O)c2ccc(Cl)nc2)c(OC)c1
→ 0.66, -1.4, 2, 2.5, i, 0, 6.4
CC(=O)Nc1cc(NC(C)=O)c(CC(C)C)s1
→ 0.68, 2.0, -2, 3.6, /, 31, 0.5
CC(C(=O)c1ccccc1)[n+]1cccc(Br)c1 (stereo unspecified)
→ 0.67, 0.1, -16, 3.8, i, 0, 2.4
Cc1ccc(NC(=O)/C=C/c2ccc(S(=O)(=O)N3CCOCC3)cc2)cc1S(=O)(=O)N(C)C
→ /, /, 22, /, i, /, 0.1
COC(=O)[C@@H](Cc1ccccc1)NC(=O)Cn1cc(C)c(=O)[nH]c1=O
→ /, /, -1, /, i, /, -5.4
Cc1cccc(C(=O)OCc2cncs2)c1
→ 0.64, 4.0, -4, 1.2, i, -1, -1.8
S=c1[nH]cc(-c2ccccc2)n1-c1ccccc1Cl
→ 0.72, 1.0, -4, 2.3, /, 90*, -2.2
O=C(NCCC1=CCCCC1)C1CCC(CNc2c(N3CCCC3)c(=O)c2=O)CC1 (stereo unspecified)
→ 0.7, 15, -5, 3.5, i, -2, 29*
C=CCn1cc(F)c(=O)n(CC=C)c1=O
→ 0.67, 4.4, 1, 1.2, i, 1, -0.7
COc1ccc(CC(=O)OCC(=O)c2ccc[nH]2)cc1
→ 0.64, 5.9, 4, 3.5, i, -2, 8.0

Under each structure – Ecoli growth, LANA-H2A inh, Beta2AR agonist, UCH37 inh, FGF22 binding, ALR inh, HNF4A DNA FP
CC(=O)Nc1ccc(S(=O)(=O)Oc2ccc(C(=S)N3CCCCC3)cc2)cc1
→ 0.66, -0.6, -8, 4.0, /, -7, -4.5
O=C(OCC1OC(Oc2ccc(O)cc2)C(O)C(O)C1O)c1ccccc1 (stereo unspecified)
→ 0.69, 6.0, 2, 1.1, i, 23, 3.0
O=C(COc1ccc2ccc(=O)oc2c1)NCCCn1ccnc1
→ 0.68, -4.4, 1, -20, i, -1, 3.3
O=[N+]([O-])c1ccc(S(=O)(=O)CC2CSc3nc4ccccc4n32)cc1 (stereo unspecified)
→ /, 2.9, -2, /, /, -17, -0.4
Cc1cccc(C(=O)N[C@H](C(=O)OCC(=O)NC2CCS(=O)(=O)C2)C(C)C)c1 (stereo partly specified)
→ 0.67, 7.4, 4, 2.3, /, 1, 2.4
COc1ccc(CNC(=O)CCCn2ccc3cc(S(=O)(=O)N4CCCC4)ccc32)cc1
→ 0.64, 0.3, -1, 1.8, i, -1, 4.0
O=C(CNC(=S)N(CCCN1CCOCC1)Cc1cccs1)NC1CCCC1
→ 0.68, 1.0, -3, 2.6, /, -19, 3.2
COC(=O)c1ccccc1NC(=O)c1cc(C2CC2)on1
→ 0.68, -1.1, 1, 2.1, i, -5, 1.4
O=C(c1cc(F)ccc1F)C1CCCN(C(=O)c2ccc(F)cc2Cl)C1 (stereo unspecified)
→ 0.65, -3.5, 1, 0.2, i, -39, 0.3
CCCS(=O)(=O)N1CCC(C(=O)N2CCCC2)CC1
→ 0.66, -0.7, 3, 1.9, /, -1, 0.7
Cc1ccc(S(=O)(=O)c2cc3cc(Br)ccc3oc2=O)cc1
→ 0.66, /, -8, 4.8, /, /, 0.9
CCCCCCCCSc1nnc(-c2ccc(OC)cc2)o1
→ 0.69, /, -6, 1.2, /, /, 1.4
O=C(NCc1ccccc1)c1ccccc1C(=O)c1ncc[nH]1
→ 0.68, -1.4, -3, 0.2, i, -1, 1.0
CC(C(=O)Nc1ccccc1Oc1ccccc1)c1ccccc1 (stereo unspecified)
→ 0.71, 4.8, 13, 4.2, /, -8, -0.2
Cn1c(=O)n(C)c2cc(NC(=O)c3ccc(F)cc3)c(Br)cc21
→ 0.66, 2.0, -11, -1.2, i, -25, 4.0

Under each structure – Ecoli growth, LANA-H2A inh, Beta2AR agonist, UCH37 inh, FGF22 binding, ALR inh, HNF4A DNA FP
O=C(Nc1ccccc1)OCCNC1CCCCC1
→ /, /, -5, /, i, /, -1.1
COC(=O)C(C)Oc1ccc(Cl)c(CN2OCC(C)(C)C2=O)c1 (stereo unspecified)
→ 0.69, -2.1, 4, 2.2, i, -12, -0.3
O=C(C1CCC(=O)N(C2CC2)C1)N1CCC(Oc2cccc(C(F)(F)F)c2)CC1 (stereo unspecified)
→ 0.72, /, 10, 2.7, i, /, 1.2
CCN(N=Nc1cccc([N+](=O)[O-])c1)c1cccc([N+](=O)[O-])c1
→ 0.68, -2.8, 2, 3.6, /, -19, 0.3
CCc1oc2ccccc2c1C(=O)c1cc(Br)c(O)c(Br)c1
→ /, 22*!, -5, 5.0, i, 98*, 6.8
COc1cc(Cl)ccc1NC(=S)N(CCN(C)C)C(C)c1ccncc1 (stereo unspecified)
→ 0.67, -3.8, -6, 1.4, i, 10, 3.7
CCCNC(=O)CSc1nnc(-c2ccc(F)cc2)o1
→ /, -2.3, 0, /, i, /, -0.7
CCOc1ccc(/C=C2/SC(=S)N(n3c(C)ccc3C)C2=O)cc1
→ 0.72, -4.3, 8, 5.5, /, 0, -4.3
O=C(CCNC(=O)c1ccco1)Nc1ccccc1
→ 0.61, -0.2, 3, 0.3, i, -4, 3.1
CCOC(=O)C1CCN(S(=O)(=O)c2ccc3c(c2)NC(=O)C(C)S3)CC1 (stereo unspecified)
→ 0.62, -6.4, 14, 1.3, i, 20, 1.2
O=C(NC1CCCCC1)C(c1cccs1)N(C(=O)c1ccco1)c1ccc2c(c1)OCCO2 (stereo unspecified)
→ 0.67, -0.1, 25, 1.4, /, -5, -5.0
CC(c1ccccc1F)n1cc(C(=O)NCCCn2ccnc2)nn1 (stereo unspecified)
→ 0.73, 0.3, -3, 2.4, /, 2, -4.1
CC(NC(=O)c1cccc(S(=O)(=O)N(C)C)c1)c1nc2ccccc2[nH]1 (stereo unspecified)
→ 0.73, -2.2, 15, -0.5, i, -9, 0.7
O=C(/C=C/c1cccc(O)c1)c1cccnc1
→ 0.7, 0.2, 17, 0.8, i, 2, -1.1
CC(C)N(C(=O)/C=C/c1cccc([N+](=O)[O-])c1)C(C)C
→ 0.73, 7.4, -1, 3.1, i, -18, -1.1

Under each structure – Ecoli growth, LANA-H2A inh, Beta2AR agonist, UCH37 inh, FGF22 binding, ALR inh, HNF4A DNA FP
COc1ccccc1NC(=O)C1CCCN(c2nc(C)cc(C)n2)C1 (stereo unspecified)
→ 0.74, -4.4, 5, -3.1, /, /, 0.3
Cc1cccc(C)c1N1CCN(C(=O)Cn2cncn2)CC1
→ 0.72, -2.1, 1, 1.4, i, -27, 1.8
CCCCCC(=O)Nc1cccc(C2=NOC3(C2)C[C@@H](C(N)=O)N(C(=O)c2cc([N+](=O)[O-])cc([N+](=O)[O-])c2)C3)c1 (stereo partly specified)
→ /, -2.6, -5, 4.8, i, /, -0.4
O=C(CCCCCn1c(=S)[nH]c2ccc(N3CCOCC3)cc2c1=O)NCc1ccccc1
→ 0.71, -1.8, 2, -61, i, -19, -4.5
C/C(=N\NC(=O)c1cccc(Br)c1)c1ccccn1
→ /, -5.3, 1, /, i, 15, -1.5
CCOC(=O)c1ccc(-n2ccnc2)c(NC(=O)c2ccc(C(C)(C)C)cc2)c1
→ 0.7, -4.1, -5, 3.9, /, -7, 4.9
Cc1c(C(=O)NC2CCS(=O)(=O)C2)oc2ccccc12 (stereo unspecified)
→ 0.65, 6.0, -7, 5.2, i, -5, 4.1
O=c1[nH]c2ccc(S(=O)(=O)N3CCCCC3)cc2s1
→ 0.8, 2.1, -9, 0.8, i, -2, -3.4
COc1ccc(CNC(=O)c2cccc(S(=O)(=O)N3CCN(c4ccc(F)cc4)CC3)c2)cc1
→ 0.64, /, 3, 3.5, i, /, 0.3
S=c1nc(Cc2ccccc2)[nH]c2ccccc12
→ 0.67, 6.1, -38, 8.5, i, /, 0.4
C=CCN1C(=O)c2ccc(C(=O)OCC(=O)N(CC)c3c(N)n(Cc4ccccc4)c(=O)[nH]c3=O)cc2C1=O
→ 0.7, /, 10, 4.2, i, /, -3.6
COc1ccc(Br)cc1/C=N/Nc1ccccn1
→ /, -7.0, -13, /, i, -2, 0.0
O=C1NC(=S)CN1c1ccccc1
→ 0.66, -1.5, -3, 2.7, i, 40, -1.9
S=c1[nH]nc(COc2ccccc2)n1/N=C/c1cccc(Cl)c1Cl
→ /, -1.3, 2, /, i, 0, 0.8
CCCCNC(=O)c1ccc2c(c1)ncn2C1CCCCC1
→ 0.68, 2.6, -2, 1.7, /, -1, -2.7
CC1CCN(C(=O)CNC(=O)CNC(=O)Cc2ccccc2)CC1
→ 0.73, 5.0, -4, -0.5, i, -6, -4.0
CS(=O)(=O)N1N=C(c2ccco2)CC1c1cccc([N+](=O)[O-])c1 (stereo unspecified)
→ 0.64, 3.6, 10, 3.1, i, 0, -0.9

Screening data (PubChem)

A portion of the library; rates above refer to the full screens.
